From PubChem BioAssay
D2 ag: agonists of human D2 dopamine receptor (beta-arrestin); P14416; DiscoveRx PathHunter D2 beta-arrestin, luminescence, 90 min; 100% = 57 uM dopamine signal; activation, % (test concentration not listed); 360,000 compounds, 0.084% hits; AID 624465; in the data active = activation above about 40%; inconclusive = about 15% to 40%; inactive = below about 15%; further: compound concentration not given in the record; the text of the record calls up to 30% inactive
Target sequence (P14416 whole entry, looked up): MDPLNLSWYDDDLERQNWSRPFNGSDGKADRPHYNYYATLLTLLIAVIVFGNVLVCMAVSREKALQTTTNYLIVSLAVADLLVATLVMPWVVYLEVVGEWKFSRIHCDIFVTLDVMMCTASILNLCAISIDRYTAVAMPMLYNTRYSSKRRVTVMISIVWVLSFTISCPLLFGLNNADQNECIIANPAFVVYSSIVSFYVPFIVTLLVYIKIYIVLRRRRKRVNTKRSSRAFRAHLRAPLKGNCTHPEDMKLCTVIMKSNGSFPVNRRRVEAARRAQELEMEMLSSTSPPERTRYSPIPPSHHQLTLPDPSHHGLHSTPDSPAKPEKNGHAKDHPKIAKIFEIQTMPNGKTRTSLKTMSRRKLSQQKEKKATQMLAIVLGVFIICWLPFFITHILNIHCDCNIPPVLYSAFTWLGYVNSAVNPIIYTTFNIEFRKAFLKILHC
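DiscoveRx PathHunter D2 beta-arrestin cells (2,100/well) attached overnight, then compound-stimulated 90 min at 37 C in HBSS/10 mM HEPES/0.1% Tween-20 buffer; beta-galactosidase complementation read by luminescence after 1 h at ambient temperature. Dopamine 57 uM final (EC100) as control.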
gsp ag: gsp mutant agonism; gsp mutant cells, cAMP HTRF, 30 min; control for the full effect not named in the record; Potency, µM (doses to about 76.9 µM), for inactives: top-dose activation (cAMP increase), usual class: activators; 340,000 compounds, 0.13% hits; AID 624287; active = well fitted activation curve with a large enough effect; inconclusive = small, poorly fitted or top-dose-only effect, or another doubt; inactive = no such curve, though single readings can be large or run the other way; cell line not stated here;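 further: phosphodiesterase inhibitor Ro 20-1724 added with compounds to block cAMP breakdown; potency means the concentration at half of the fitted maximal effect; nearly all actives have a fitted effect of over 60% in size; about a fifth of the inactives were tested at one dose only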
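Cells stably selected in G418 were plated at 2000/well, grown 16-24 hr, then given compounds in DMSO with the PDE inhibitor […] (300 uM solution added) for 30 min at 37C; cAMP was read by HTRF.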
D2 PAM: human D2 receptor positive allosteric modulation | DiscoveRx D2 beta-arrestin cells, luminescence, 90 min; 100% = 57 uM dopamine signal | P14416 | potentiation, % (test concentration not listed) | 360,000 compounds, 0.23% hits; active = potentiation of 50% or more; inconclusive = 30% to 50%; inactive = 30% or less;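 further: compound concentration not given in the record; tested on top of an EC20 dose of dopamine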
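PathHunter beta-arrestin assay in DiscoveRx D2 cells. Compounds were added with an EC20 of dopamine (50 nM final) for 90 min at 37 deg C. Luminescence was read 1 h after detection reagent, with 57 uM dopamine as the EC100 control.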
gsp antagonist: antagonizes gsp, the McCune-Albright syndrome mutation; Potency, µM (titrated, usually from 76.9 µM), without a hit: at the top dose activity change, negative = inhibition, actives largely listed as inhibitors; AID 624288; gsp-mutant cells, cAMP HTRF, 30 min; control for the full effect not named in the record; 340,000 compounds, 0.4% hits; active = falling curve of any shape with a large fitted effect; inconclusive = falling curve, mostly with a smaller effect; inactive = flat or rising curve; cell line not stated here;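 further: intracellular cAMP measured with PDE inhibitor Ro 20-1724 present during compound exposure; potency means the concentration at half of the fitted maximal effect; on the % scale 0 is the no-effect control and ±100 the full control effect; nearly all actives have a fitted effect of over 65% in size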
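Cells, 2000/well, grown 16–24 h in DMEM 10% FBS with 0.5 mg/ml G418, then compounds plus […] (300 uM addition stock), 30 min at 37C. cAMP read by HTRF (cAMP-d2 and anti-cAMP antibody-K in lysis buffer) after 30 min RT.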
Six1-Eya2 blk: inhibitors of human Six1/Eya2 interaction. AlphaScreen GST-Six1/His-Eya2 binding, biochemical; active compounds read low; control for the full effect not named in the record. activity change, % (concentration not given with the values). 360,000 compounds, 0.56% hits; in the data active = activity change below about -65%; inconclusive = about -30% to -65%; inactive = above about -30%; further: on the % scale 0 is the no-effect control and ±100 the full control effect
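AlphaScreen with GST-Six1 and His-Eya2 (5X mix: 250 nM and 500 nM), glutathione donor and nickel acceptor beads; buffer 50 mM Tris pH 8.0, 300 mM NaCl, 1 mM TCEP; 1 h at 37 C in the dark.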
CtBP-E1A inh: blocks the CtBP interaction with E1A; AlphaScreen GST-E1A/His-CtBP binding, 1536-well; active compounds read low; control for the full effect not named in the record; activity change, % (no concentration beside the values); 340,000 compounds, 0.49% hits; AID 651724; in the data active means activity change below about -65%; inconclusive means about -30% to -65%; inactive means above about -30%; further: on the % scale 0 is the no-effect control and ±100 the full control effect
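Protein mix (5X: 125 nM each GST-E1A, His-CtBP) was incubated with pinned compound 2 h at 37 deg C in dark, in 50 mM Tris pH 8.0 buffer with 300 mM NaCl. Glutathione donor and nickel acceptor beads followed; AlphaScreen signal read after 1 h.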
* marks the source's active call; other numbers are inactive results; ? = inconclusive; / = not tested or not shown; [ ] = remark or other dose.

Start of the listing, in advance:
entry	structure	D2 ag	gsp ag	D2 PAM	gsp antagonist	Six1-Eya2 blk	CtBP-E1A inh
1	COc1cc(C2C(C(=O)c3cc4ccccc4o3)=C(O)C(=O)N2c2cc(C)on2)cc(OC)c1OC (stereo not given)	-7.4	?	-2	1%	-6	-12
2	O=[N+]([O-])c1ccc(OCCCCN2CCc3ccccc3C2)cc1	4.6	-24%	-22	8%	-9	-13
3	CC(C)(C)n1nc2c(c1NC(=O)Cc1ccc(F)cc1)CSC2	-6.5	-2%	-8	3%	4	-2

The list itself, repeating the preview:
entry	structure	D2 ag	gsp ag	D2 PAM	gsp antagonist	Six1-Eya2 blk	CtBP-E1A inh
1	COc1cc(C2C(C(=O)c3cc4ccccc4o3)=C(O)C(=O)N2c2cc(C)on2)cc(OC)c1OC (stereo not given)	-7.4	?	-2	1%	-6	-12
2	O=[N+]([O-])c1ccc(OCCCCN2CCc3ccccc3C2)cc1	4.6	-24%	-22	8%	-9	-13
3	CC(C)(C)n1nc2c(c1NC(=O)Cc1ccc(F)cc1)CSC2	-6.5	-2%	-8	3%	4	-2
4	O=C(Nc1ccc(S(=O)(=O)N2CCOCC2)cc1)c1ccc([N+](=O)[O-])o1	4.2	16%[15.4 µM]	10	7%	4	7
5	Cc1cc(CNC(=O)CC2C(=O)NCCN2Cc2ccccc2C(F)(F)F)on1 (stereo not given)	-0.8	19%	-1	9%	5	0
6	Cc1cc2c(c(SCC(=O)NCc3ccc(Cl)cc3)n1)C(=O)OC2	-2.8	16%	-9	-6%	1	3
7	CCN(CC)S(=O)(=O)c1ccc(NC(=O)COC(=O)CNC(=O)C2CCCCC2)cc1	-5.3	3%	-15	-1%	6	4
8	CCc1ccc(N2C(=O)Nc3ccccc3C2(O)C(=O)N2CCN(c3ccccn3)CC2)cc1 (stereo not given)	-4.3	-26%[15.4 µM]	-1	-6%	2	4
9	O=C(c1cc2cc([N+](=O)[O-])ccc2oc1=O)N1CCN(C2CCCCC2)CC1	-2.6	-2%	-4	3%	9	3
10	CC(=O)N/N=C/c1cc2c(cc1[N+](=O)[O-])OCO2	-1.6	-1%[15.4 µM]	-33	/	0	-5
11	COc1ccccc1C(=O)N/C(=C\c1cn(S(=O)(=O)N(C)C)c2ccccc12)C(=O)NCCCN1CCOCC1	3.8	-89%[inhibitor]	-23	-23%	-1	-2
12	Cc1ccc(S(=O)(=O)NC(=O)NCc2ccc(Cl)cc2)cc1	-5.8	6%	-15	-5%	0	-1
13	OC(c1ccc(F)cc1)c1nc(-c2cccs2)cs1 (stereo not given)	-0.3	/	1	/	6	2
14	O=C(Cn1c(=O)oc2cc(S(=O)(=O)N3CCCC3)ccc21)Nc1cccc(C(F)(F)F)c1	0.9	10%	-33	-3%	5	1
15	Cc1c(C)c2c(OCC(=O)Nc3ccc(CCO)cc3)cc3c(c2oc1=O)CCC(C)(C)O3	7.8	/	11	-12%	-27	-27
16	O=C(O)CCC(=O)NN1C(=O)c2ccccc2NC1c1ccc(F)cc1 (stereo not given)	-1.5	-2%[15.4 µM]	-1	7%	4	6
17	O=S(=O)(NCC1CCN(c2ccc(S(=O)(=O)N3CCOCC3)cc2)CC1)c1ccc(F)cc1	1.9	-4%[15.4 µM]	-5	-10%	-3	-16
18	CCC1=NN(C(=O)c2ccc([N+](=O)[O-])cc2)C(O)(c2ccccc2)C1 (stereo not given)	-9.9	-13%	-12	-22%	-16	-30
19	O=C(c1ccc2[nH]ccc2c1)N1CCCC(Nc2ccccc2)C1 (stereo not given)	-2.0	-1%	-9	13%	-2	0
20	C=CCSc1n[nH]c(-c2ccc(OCCC)cc2)n1	-1.1	14%	1	-7%	-3	3
21	O=C(O)C1CCCCN1C(=O)c1cc2c(s1)CCCCC2 (stereo not given)	-5.0	-51%[inhibitor]	-5	-5%	12	3
22	CC1=NOC(=O)/C1=C\c1ccc(-c2ccc(Br)cc2C(=O)O)o1	0.6	7%	-5	-2%	-13	0
23	Cc1ccn(CCC(=O)N2c3ccccc3CC2C)n1 (stereo not given)	-3.0	26%	-13	0%	-2	/
24	COc1ccc(C(=O)NCC2(c3ccccc3)CCCC2)c(OC)c1	-0.5	-14%	-10	?	-2	4
25	COc1cccc(NC(=O)C2CCCN(c3ncnc4c3nc3n4CCCCC3)C2)c1 (stereo not given)	3.1	6%	-9	-20%	-12	-13
26	COc1ccccc1C(NC(=O)C1CCN(CCOc2ccc(Cl)cc2Cl)CC1)c1ccccn1 (stereo not given)	-2.5	/	-15	/	-8	-15
27	CCOc1ncccc1C(=O)N(C)CC(=O)Nc1ccccc1SC	1.9	-6%[15.4 µM]	-4	3%	-15	3
28	CNc1nc2cc([N+](=O)[O-])c([N+](=O)[O-])cc2nc1NC	-9.3	-5%[15.4 µM]	-6	-20%	-19	1
29	S=c1[nH]cnc2scc(-c3ccc(Cl)cc3)c12	-7.3	6%[15.4 µM]	-13	-21%	0	1
30	COC(=O)C1Sc2[nH]c(=O)sc2C(c2ccc(Cl)cc2)C1C(=O)OC (stereo not given)	-3.2	?	-2	-2%	0	-18
31	COC(=O)c1ccc([N+](=O)[O-])cc1N1C(=O)C2C3CCC(C3)C2C1=O (stereo not given)	?	-122%[inhibitor]	7	14%	2	/
32	COc1cccc(N2C(=O)CC(N3CCN(C(=O)c4ccco4)CC3)C2=O)c1 (stereo not given)	-2.7	23%	2	10%	3	4
33	CCN1CCN(c2cc(=O)n(-c3cc(Cl)ccc3C)c(=O)[nH]2)CC1	-3.6	20%	-11	9%	4	-3
34	COc1ccc(C(=O)N[C@H](C(=O)NCCCn2nc(C)cc2C)C(C)C)cc1	-2.8	25%	-14	10%	0	5
35	COc1ccc2nc(C)c3c(c2c1)OC(C(C)(Cl)Br)C3 (stereo not given)	-1.0	-18%[15.4 µM]	-6	-7%	-1	1
36	COc1cccc(C2CC(c3cccs3)Nc3ncnn32)c1 (stereo not given)	-2.3	4%	-14	-2%	7	0
37	CC1CCN(S(=O)(=O)c2cccc(C(=O)Nc3ccccc3)c2)CC1	-3.6	-18%[15.4 µM]	-5	-2%	8	3
38	CCn1nc(C(=O)NNC(=O)C(Cc2ccccc2)NC(N)=O)c2ccccc2c1=O (stereo not given)	1.1	20%	-1	3%	6	0
39	CCN(CC)S(=O)(=O)c1cccc(C(=O)NC2CCCCC2)c1	-0.7	11%	-14	-8%	-2	-11
40	Cc1cc(N(C)C)cc(C)c1N=Nc1cc[n+]([O-])cc1	-4.9	?	-5	/	-28	-6
41	Nc1ncnc2c1ncn2[C@@H]1O[C@H](CN=C2NS(=O)(=O)c3ccccc32)[C@@H](O)[C@H]1O	-0.6	/	-6	8%	1	9
42	O=S(=O)(NNc1nccc(C(F)(F)F)n1)c1cccc(Cl)c1Cl	3.2	14%	-5	-9%	1	/
43	CCc1n[nH]c(=S)n1/N=C/c1ccc(-c2ccc(Br)cc2)o1	?	?	4	4%	-1	/
44	O=C(Cn1ccc2ccccc2c1=O)NCCC(=O)Nc1ccc(F)cc1F	-2.7	16%[15.4 µM]	-9	-12%	6	3
45	Cc1ncc([N+](=O)[O-])n1CC(=O)NC1CCCC1	-0.6	-33%[inhibitor]	1	12%	3	1
46	c1ccc(C2Nc3ccccc3-c3nc4ccccc4n32)nc1 (stereo not given)	-3.4	?	-5	-3%	-25	?
47	Cc1nc(C(F)(F)F)ccc1C(=O)N1CCC(C)(C(=O)O)C1 (stereo not given)	3.6	/	3	/	1	16
48	Cc1cc(C)cc(OCC(=O)OCC(=O)Nc2cc(S(=O)(=O)N3CCOCC3)ccc2Cl)c1	4.3	28%	-9	-6%	-1	-14
49	O=C(CN1CCN(S(=O)(=O)c2ccc(F)c(Cl)c2)CC1)N1CCOCC1	-0.6	-20%	-1	-4%	2	9
50	ClCc1csc(-c2ccccc2Cl)n1	-2.4	0%[15.4 µM]	-8	-8%	5	1

Full records from above.
Profile of Cc1nc(C(F)(F)F)ccc1C(=O)N1CCC(C)(C(=O)O)C1 (stereo not given) → D2 ag = 3.6; gsp ag = /; D2 PAM = 3; gsp antagonist = /; Six1-Eya2 blk = 1; CtBP-E1A inh = 16
Profile of O=C(Cn1ccc2ccccc2c1=O)NCCC(=O)Nc1ccc(F)cc1F → D2 ag = -2.7; gsp ag = 16%[15.4 µM]; D2 PAM = -9; gsp antagonist = -12%; Six1-Eya2 blk = 6; CtBP-E1A inh = 3

Remaining list, next part:
entry	structure	D2 ag	gsp ag	D2 PAM	gsp antagonist	Six1-Eya2 blk	CtBP-E1A inh
51	Cc1ccccc1OCCCCCCN1CCNCC1	0.9	-2%[15.4 µM]	-19	7%	0	-2
52	CCn1nccc1C(=O)Nc1ccc(S(=O)(=O)NC23CC4CC(CC(C4)C2)C3)cc1	1.9	0%	13	?	-7	-15
53	COc1cc(NC(=O)CCS(=O)(=O)c2ccc3c(c2)n(C)c(=O)c(=O)n3C)cc(OC)c1	-0.1	11%	-2	8%	1	-1
54	O=C(COc1ccc(F)cc1Cl)Nc1ccc(N2CCOCC2)cc1N1CCOCC1	0.8	-4%	-4	6%	-4	-3
55	C/C(C/C(C)=C1/SC(=S)NC1=O)=C1\SC(=S)NC1=O	-7.3	-3%[15.4 µM]	-8	-6%	-71*	?
56	O=C(OCCN1C(=O)c2ccccc2C1=O)[C@@H]1CC(O)CN1S(=O)(=O)c1ccccc1[N+](=O)[O-] (stereo not given in full)	3.2	-4%	-1	-1%	12	0
57	CCOC(=O)CSc1nc(N2CCOCC2)c2c(c1C#N)CC(C(C)C)OC2 (stereo not given)	-1.9	11%	6	?	4	8
58	Cc1ccc(N(C)S(=O)(=O)c2ccc(-c3cc(C)no3)s2)cc1	-0.3	-3%	-9	0%	38	/
59	CCCCOc1ccc(C(=O)N/C(=C/C=C/c2ccccc2)C(=O)O)cc1	-1.1	-9%	-2	-1%	4	1
60	CCOC(=O)CSc1nnc2n(C3CCCCC3)c(=O)c3c4c(sc3n12)CCCC4	-1.9	-1%	-4	-31%	4	13
